Assay outcomes deposited in PubChem by National Center for Advancing Translational Sciences (NCATS).
GLA inh pH 4.5 – alpha-galactosidase A (human) inhibition, pH 4.5; purified enzyme, 4-MU-alpha-Gal fluorescence, pH 4.5; activity change, negative = inhibition, % at 105 µM; 230,000 tested, under 10 active; AID 1467; inconclusive = small, poorly fitted or top-dose-only inhibition, or a rising curve; inactive = flat fitted curve, though single readings scatter; no compound was filed as active;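 further: 0% = full activity with enzyme and -100% = basal without enzyme; dose as in the result columns while the protocol names 77 µM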
Rango dissoc inh – prevents RanGTP from dissociating the Rango-importin beta complex | O95149+P62826 | Biochemical FRET Rango-importin beta, RanGTP-induced dissociation | Potency, µM (doses to about 46.1 µM), for the others: at the highest dose activity change, negative = inhibition | 340,000 tested, 0.071% active | AID 540253; active means falling FRET ratio curve, often poorly fitted, with flat reads before Ran was added; inconclusive means other falling curves, or compound fluorescence or quenching; inactive means flat or rising ratio curve;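 further: potency means the concentration at half of the fitted maximal effect; % of control where 0% means no effect; nearly all actives have a fitted effect of over 45% in size; -100% = wells without RanGTP and RCC1; the record marks most hits as doubtful in a second field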
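Compounds preincubate 5 min with complex of recombinant Rango and importin beta in PBS with 1 mM DTT. Ran (0.6 uM) loaded with 2 mM GTP plus 0.2 uM RCC1 starts dissociation; FRET is recorded 45 min later.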
Rango complex inh – inhibitors of Rango-importin beta complex formation. Potency, µM (highest dose often 92.2 µM), for the others: top-dose inhibition of complex formation. AID 540263. 340,000 tested, 0.031% active. Rango CFP/YFP FRET sensor + importin beta, 45 min. Q14974; active = rising FRET ratio curve, often small or poorly fitted; inconclusive = mostly compound fluorescence or quenching in the first reads; inactive = flat curves in all reads;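 further: potency means the concentration at half of the fitted maximal effect; 0% = DMSO wells and 100% = buffer wells lacking importin beta; nearly all actives have a fitted effect of over 15% in size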
Target sequence (Q14974 whole entry, looked up): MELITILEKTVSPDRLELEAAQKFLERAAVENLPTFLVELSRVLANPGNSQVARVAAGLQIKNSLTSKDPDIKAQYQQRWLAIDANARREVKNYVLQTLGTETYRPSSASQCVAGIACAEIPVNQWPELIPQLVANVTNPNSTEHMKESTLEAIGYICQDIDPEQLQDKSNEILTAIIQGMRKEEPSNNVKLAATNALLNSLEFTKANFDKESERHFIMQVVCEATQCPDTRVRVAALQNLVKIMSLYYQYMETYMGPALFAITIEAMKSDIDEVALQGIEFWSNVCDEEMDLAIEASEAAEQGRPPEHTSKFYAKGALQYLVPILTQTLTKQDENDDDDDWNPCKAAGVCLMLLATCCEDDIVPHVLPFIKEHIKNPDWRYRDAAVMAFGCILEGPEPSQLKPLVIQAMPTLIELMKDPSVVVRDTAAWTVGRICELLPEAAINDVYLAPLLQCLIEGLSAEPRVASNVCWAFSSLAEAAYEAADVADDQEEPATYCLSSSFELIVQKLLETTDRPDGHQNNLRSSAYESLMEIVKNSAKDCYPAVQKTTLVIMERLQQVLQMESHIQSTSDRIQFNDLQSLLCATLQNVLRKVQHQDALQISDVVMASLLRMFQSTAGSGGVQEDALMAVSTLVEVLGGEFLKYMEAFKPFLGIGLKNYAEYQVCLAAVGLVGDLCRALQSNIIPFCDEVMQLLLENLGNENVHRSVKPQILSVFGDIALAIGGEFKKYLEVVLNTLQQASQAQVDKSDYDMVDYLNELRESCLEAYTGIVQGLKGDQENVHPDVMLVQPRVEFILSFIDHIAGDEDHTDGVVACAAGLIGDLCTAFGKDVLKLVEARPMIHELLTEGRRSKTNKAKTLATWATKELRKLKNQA
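FRET biosensor (snurportin 1 IBB flanked by EYFP and cerulean), 50 nM, with compound 5 min, then 0.125 microM importin beta in PBS, 1 mM DTT, 0.02% Tween-20, 0.1% BSA. CFP/YFP ratio read after 45 min at room temperature; pre-read flags interference.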
miR-21 FLuc – miR-21 reporter, rising signal | Potency, µM (highest dose often 38.3 µM), for inactives: top-dose reporter change, positive = more light | AID 2288 | HeLa miR-21 FLuc reporter, luciferase, 48 h | 340,000 tested, under 10 active; active = well fitted rising curve with a large enough effect; inconclusive = small, poorly fitted or top-dose-only effect; inactive = no such curve, though single readings can be large or run the other way;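 further: % of control where 0% means no effect; miR-21 action dims this reporter so a rising signal means less miR-21 action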
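Luminescence from a firefly luciferase reporter carrying a miR-21 binding site downstream, stably expressed under a CMV promoter in HeLa cells that make miR-21 endogenously, reports miRNA modulation after 48 h compound exposure up to approximately 40uM final.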
* = called active by the depositor; & = joins results of further samples. These rows are one share of the data; the hit share may differ from the screen's.

What do the screens show for `Cc1cc(S(=O)(=O)Nc2c(NC3CCCCC3)c3ccccc3oc2=O)ccc1F`?
Rango dissoc inh: 1%; Rango complex inh: 3.8%; miR-21 FLuc: 6%

What do the screens show for `Cc1ccc(C(C)C)c(OCC(=O)NC(=S)Nc2ccccc2N2CCOCC2)c1`?
Rango dissoc inh: -3%; Rango complex inh: -2.6%; miR-21 FLuc: -1%

How did O=C(CCCC(=O)N(CC(=O)NC1CCCCC1)c1cccc(F)c1)Nc1ccccn1 do in these assays?
Rango dissoc inh: 8%; Rango complex inh: -1.9%; miR-21 FLuc: 0%

Results for CCCCOC(=O)CNc1n[nH]c(=S)[nH]c1=O ?
GLA inh pH 4.5: 2; Rango dissoc inh: 13%; Rango complex inh: 0.7%; miR-21 FLuc: -3%

How did CN(C)S(=O)(=O)Oc1cc(Cl)ccc1C(=O)Nc1ccc(F)cc1F do in these assays?
GLA inh pH 4.5: 4; Rango dissoc inh: 3%; Rango complex inh: -2.3%; miR-21 FLuc: -12%

Results for Cc1cc(C)c2cc(CN(Cc3nnnn3Cc3ccc(F)cc3)C3CCCC3)c(=O)[nH]c2c1 ?
GLA inh pH 4.5: 11; Rango dissoc inh: -11%; Rango complex inh: -5.9%; miR-21 FLuc: -3%

How did O=C(Cc1ccccc1)NCC1OCCc2ccccc21 (stereo not given) do in these assays?
GLA inh pH 4.5: 1; Rango dissoc inh: -9%; Rango complex inh: -4.0%; miR-21 FLuc: -1%

How did CCOC(=O)N1CCC(NC(=O)c2ccc(CNS(=O)(=O)c3ccc(F)cc3)cc2)CC1 do in these assays?
GLA inh pH 4.5: 4; Rango dissoc inh: 9%; Rango complex inh: -1.4%; miR-21 FLuc: 1%

What do the screens show for `CCn1c(SCC(N)=O)nc2c(c1=O)C1(CCCC1)Cc1ccccc1-2`?
GLA inh pH 4.5: 0; Rango dissoc inh: -8%; Rango complex inh: -4.4%; miR-21 FLuc: 0%

How did CC(C)CC(=O)Nc1c2c(nn1-c1ccc(F)cc1)CS(=O)(=O)C2 do in these assays?
Rango dissoc inh: -2%; Rango complex inh: 1.6%; miR-21 FLuc: -4%

How did CC(C)OC(=O)CCNc1n[nH]c(=O)[nH]c1=O do in these assays?
GLA inh pH 4.5: 8; Rango dissoc inh: 12%; Rango complex inh: 1.4%; miR-21 FLuc: 2%

How did COc1ccc(/C(O)=C2/C(=O)C(=O)N(CC3CCCO3)C2c2cccc(O)c2)cc1 (stereo not given) do in these assays?
GLA inh pH 4.5: 0; Rango dissoc inh: 12%; Rango complex inh: 0.7%; miR-21 FLuc: -1%

What do the screens show for `O=C(COC(=O)Cc1ccccc1F)NNC(=O)c1ccc(Cl)cc1`?
Rango dissoc inh: -6%; Rango complex inh: -4.1%

How did Cc1ccc(S(=O)(=O)N2CCN(C(=O)c3ccccc3-c3nc4ccccc4s3)CC2)c(C)c1 do in these assays?
Rango dissoc inh: 17%; Rango complex inh: 0.2%

Results for COc1ccccc1NC(=O)C1=C(C)NC(=O)NC1c1ccc(C)s1 (stereo not given) ?
GLA inh pH 4.5: 3; Rango dissoc inh: -15%; Rango complex inh: -2.6%; miR-21 FLuc: -9%

Results for CCc1ccc(OCCCC(=O)Nc2ccc(S(N)(=O)=O)cc2)cc1 ?
GLA inh pH 4.5: 2; Rango dissoc inh: -3%; Rango complex inh: -0.7%; miR-21 FLuc: 4%

What do the screens show for `COc1ccc(CNC(=O)C2CCN(C(=O)N3CCOc4ccc(C)cc43)CC2)cc1`?
GLA inh pH 4.5: -4; Rango dissoc inh: 2%; Rango complex inh: 0.7%; miR-21 FLuc: 9%&7%

What do the screens show for `COc1ccc(C(=O)N(c2ccc(C)cc2)C2C=CS(=O)(=O)C2)cc1OC` (stereo not given)?
GLA inh pH 4.5: 9; Rango dissoc inh: -11%; Rango complex inh: -4.7%; miR-21 FLuc: -6%

How did CC1(c2ccccc2)NC(=O)N(CC(=O)Nc2ccccc2C(=O)N2CCCCC2)C1=O (stereo not given) do in these assays?
Rango dissoc inh: -1%; Rango complex inh: 0.3%

How did Cn1nc(C(=O)OCC(=O)Nc2ccc3ccccc3c2)c2ccccc2c1=O do in these assays?
GLA inh pH 4.5: 0; Rango dissoc inh: 12%; Rango complex inh: -3.1%; miR-21 FLuc: -4%

What do the screens show for `CCNCCC(=O)N1c2ccccc2Sc2ccc(NC(=O)OCC)cc21`?
GLA inh pH 4.5: 0; Rango dissoc inh: -8%; Rango complex inh: -6.6%; miR-21 FLuc: -8%

What do the screens show for `Cc1noc(C)c1S(=O)(=O)N(C)Cc1ccccc1`?
GLA inh pH 4.5: -5; Rango dissoc inh: 1%; Rango complex inh: 1.5%; miR-21 FLuc: 4%

Results for CN(CC(=O)NCCc1ccc(F)cc1)Cc1cccc(Cl)c1 ?
GLA inh pH 4.5: -4; Rango dissoc inh: -6%; Rango complex inh: 8.8%; miR-21 FLuc: -12%

Results for CC1=C(C(=O)Nc2ccccc2C(=O)NC2CCCCC2)SCCO1 ?
Rango dissoc inh: 4%; Rango complex inh: 1.9%; miR-21 FLuc: -11%

What do the screens show for `Cc1cccc(NC(=O)c2cccc(NC(=O)c3ccco3)c2)c1C`?
Rango dissoc inh: -5%; Rango complex inh: 0.1%

Results for CCn1cnc2scc(-c3ccccc3)c2c1=O ?
GLA inh pH 4.5: -12; Rango dissoc inh: 2%; Rango complex inh: -2.5%; miR-21 FLuc: -10%

How did O=[N+]([O-])c1ccc(N2CCN(c3ccccc3O)CC2)cc1 do in these assays?
Rango dissoc inh: -2%; Rango complex inh: 1.0%; miR-21 FLuc: -8%

What do the screens show for `COc1cccc(CC2(CO)CCCN(Cc3cn[nH]c3C3CCCCC3)C2)c1` (stereo not given)?
GLA inh pH 4.5: inconclusive; Rango dissoc inh: 1%; Rango complex inh: -3.1%; miR-21 FLuc: 4%

How did COc1ccc(NC(=O)COC(=O)Cc2c(F)cccc2Cl)cc1 do in these assays?
GLA inh pH 4.5: 1; Rango dissoc inh: 17%; Rango complex inh: -1.2%; miR-21 FLuc: 1%

Results for NNC(=S)NCc1ccco1 ?
GLA inh pH 4.5: -16; Rango dissoc inh: -5%; Rango complex inh: 1.9%; miR-21 FLuc: 0%

Results for COc1ccc(NC(=O)Cn2c(-c3ccc(OC)cc3)cn(-c3ccc(C)cc3)c2=O)cc1 ?
GLA inh pH 4.5: -5; Rango dissoc inh: -17%; Rango complex inh: inconclusive; miR-21 FLuc: -19%

Results for O=C(CN1N=C(c2ccc(Cl)cc2)CCC1=O)NCc1cccnc1 ?
GLA inh pH 4.5: -2; Rango dissoc inh: -1%; Rango complex inh: 0.6%; miR-21 FLuc: -7%

Results for N#Cc1c(NC(=O)CSc2ncc(-c3ccccc3)n2CC2CCCO2)sc2c1CCCC2 (stereo not given) ?
GLA inh pH 4.5: -3; Rango dissoc inh: 12%; Rango complex inh: 2.6%; miR-21 FLuc: 17%

Results for COc1cc(CN2CCN(C3CCC3)CC2CCO)cc(OC)c1 (stereo not given) ?
Rango dissoc inh: -5%; Rango complex inh: -1.6%; miR-21 FLuc: 0%

How did COc1ccc(C2CC(c3c(Cl)cccc3Cl)n3nc(N)nc3N2)cc1 (stereo not given) do in these assays?
GLA inh pH 4.5: -3; Rango dissoc inh: -7%; Rango complex inh: inconclusive; miR-21 FLuc: -5%

How did COc1ccc(C(C(=O)NCC2CCCO2)N(C(=O)c2snc(C(N)=O)c2N)c2ccc(C)cc2)cc1OC (stereo not given) do in these assays?
Rango dissoc inh: 22%; Rango complex inh: -1.1%; miR-21 FLuc: -4%

How did COc1ccc(-c2ccc3c(c2)S(=O)(=O)c2cccc(C(=O)N4CCN(c5c(Cl)cncc5Cl)CC4)c2C3=O)cc1OC do in these assays?
Rango dissoc inh: inconclusive; Rango complex inh: inconclusive

Results for CCC(C)(C)NC(=O)C(c1cccn1C)N(Cc1ccc(C)cc1)C(=O)Cn1nnc2ccccc21 (stereo not given) ?
GLA inh pH 4.5: 5; Rango dissoc inh: -1%; Rango complex inh: -0.6%; miR-21 FLuc: -3%

Results for Cc1cccc2sc(NC(=O)C3c4ccccc4Oc4ccccc43)nc12 ?
GLA inh pH 4.5: -10; Rango dissoc inh: -4%; Rango complex inh: 2.3%; miR-21 FLuc: 0%

How did C=CCN1C=C2C(=O)C(C)(OC(=O)CCc3ccccc3)C(=O)C=C2C=C1c1ccc(C#N)cc1 (stereo not given) do in these assays?
GLA inh pH 4.5: -9&-14; Rango dissoc inh: inconclusive; Rango complex inh: inconclusive; miR-21 FLuc: -2%

How did O=C(CCCN1C(=O)/C(=C/c2ccccc2Cl)SC1=S)N1CCOCC1 do in these assays?
Rango dissoc inh: -17%; Rango complex inh: 0.0%; miR-21 FLuc: 10%

How did COc1ccc(NC(=O)CCNC(=O)Cn2ccc3ccccc3c2=O)cc1OC do in these assays?
Rango dissoc inh: 0%; Rango complex inh: -0.5%; miR-21 FLuc: 5%

How did CN(C)S(=O)(=O)c1ccc(NC(=O)C2CCCN(C(=O)c3ccc(Cl)cc3)C2)cc1 (stereo not given) do in these assays?
GLA inh pH 4.5: -1; Rango dissoc inh: inconclusive; Rango complex inh: -6.2%; miR-21 FLuc: 7%

Results for CC(C)CCNC(=O)C1CCN(S(=O)(=O)c2ccc3c(c2)CC(C)N3C(=O)C2CCC2)CC1 (stereo not given) ?
Rango dissoc inh: -15%; Rango complex inh: inconclusive; miR-21 FLuc: 1%

How did Cc1ccccc1C(=O)Nc1ccc2c(c1)OCO2 do in these assays?
GLA inh pH 4.5: 7; Rango dissoc inh: -20%; Rango complex inh: -1.8%; miR-21 FLuc: -4%

How did COc1ccc(-c2cc(C3CCN(c4ncccc4[N+](=O)[O-])CC3)[nH]n2)cc1 do in these assays?
GLA inh pH 4.5: -10; Rango dissoc inh: 26%; Rango complex inh: 2.2%; miR-21 FLuc: -4%

How did COc1cc(OC)cc(C(=O)NC(C(=O)Nc2ccc3c(c2)OCCO3)C(C)C)c1 (stereo not given) do in these assays?
Rango dissoc inh: -2%; Rango complex inh: 4.3%

What do the screens show for `Nc1c(N(CCC2=CCCCC2)C(=O)c2ccco2)c(=O)[nH]c(=O)n1Cc1ccccc1`?
Rango dissoc inh: 13%; Rango complex inh: 0.6%

2 records drawn at random from those above:
Results for Cc1cccc2sc(NC(=O)C3c4ccccc4Oc4ccccc43)nc12 ?
GLA inh pH 4.5: -10; Rango dissoc inh: -4%; Rango complex inh: 2.3%; miR-21 FLuc: 0%

How did CN(C)S(=O)(=O)c1ccc(NC(=O)C2CCCN(C(=O)c3ccc(Cl)cc3)C2)cc1 (stereo not given) do in these assays?
GLA inh pH 4.5: -1; Rango dissoc inh: inconclusive; Rango complex inh: -6.2%; miR-21 FLuc: 7%

More results:
What do the screens show for `Cc1n[nH]c(C)c1S(=O)(=O)N1CCCC(C(=O)Nc2ccc3c(c2)OCCO3)C1` (stereo not given)?
GLA inh pH 4.5: 6; miR-21 FLuc: 1%

How did Cc1ccc2ncccc2c1NS(=O)(=O)c1ccccc1 do in these assays?
GLA inh pH 4.5: -14; Rango dissoc inh: -11%; Rango complex inh: 7.1%; miR-21 FLuc: -8%

What do the screens show for `O=C(c1ccccn1)N1CCCC(N2CCN(c3ccc(F)cc3)CC2)C1` (stereo not given)?
Rango dissoc inh: -1%; Rango complex inh: -1.5%; miR-21 FLuc: 0%

Results for O=C(/C=C/c1cccc([N+](=O)[O-])c1)N1CCN(c2ccccn2)CC1 ?
Rango dissoc inh: -13%; Rango complex inh: 6.2%; miR-21 FLuc: 1%

Three compounds out of the list, sorted by count of non-hydrogen atoms, rising.
What do the screens show for `Cc1cccc(NC(=O)c2cccc(NC(=O)c3ccco3)c2)c1C`?
Rango dissoc inh: -5%; Rango complex inh: 0.1%

How did CN(C)S(=O)(=O)c1ccc(NC(=O)C2CCCN(C(=O)c3ccc(Cl)cc3)C2)cc1 (stereo not given) do in these assays?
GLA inh pH 4.5: -1; Rango dissoc inh: inconclusive; Rango complex inh: -6.2%; miR-21 FLuc: 7%

How did CCOC(=O)N1CCC(NC(=O)c2ccc(CNS(=O)(=O)c3ccc(F)cc3)cc2)CC1 do in these assays?
GLA inh pH 4.5: 4; Rango dissoc inh: 9%; Rango complex inh: -1.4%; miR-21 FLuc: 1%
